VCAM-1 imaging = suppression of endothelial VCAM-1 upregulation – imaging, high-content imaging, pooled HUVEC, TNFa stimulus (AID 456); HUVEC TNFa-induced VCAM-1 surface expression, immunofluorescence imaging; numbers were filed only for top-ranked candidate wells; inhibition, % at 5 µM, or IC50 in µM where a hit was titrated; 10,000 tested, 0.2% active;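 active = top tenth filtered wells with inhibition above zero that passed visual or statistical confirmation; inactive = the rest, including hits rejected on review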;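 note: 0% = stimulated vehicle wells and 100% = unstimulated cells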
FPR binder = ligands of human FPR, also counter-screen for FPRL1 ligands. FPR-expressing cells, fluorescent ligand binding, flow cytometry. inhibition, %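 (tested at 6.7 µM)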. 24,000 tested, 0.74% active. AID 440;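 note: 0% = buffer wells and 100% = receptor blocker peptide wells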
Target sequence (P21462 whole entry, looked up): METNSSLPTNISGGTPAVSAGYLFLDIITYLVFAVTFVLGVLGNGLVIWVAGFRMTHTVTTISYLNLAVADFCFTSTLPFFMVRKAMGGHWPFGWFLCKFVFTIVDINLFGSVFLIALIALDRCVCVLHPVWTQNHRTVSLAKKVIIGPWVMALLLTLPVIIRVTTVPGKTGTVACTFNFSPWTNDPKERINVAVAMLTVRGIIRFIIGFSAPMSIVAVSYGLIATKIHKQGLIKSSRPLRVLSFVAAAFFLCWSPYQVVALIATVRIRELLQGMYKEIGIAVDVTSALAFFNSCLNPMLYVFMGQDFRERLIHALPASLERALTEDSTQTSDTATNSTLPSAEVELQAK
FPRL1 binder = ligands of human FPRL1, also counter-screen for FPR ligands. P25090. FPRL1-expressing cells, fluorescent ligand binding inhibition, flow cytometry. inhibition, %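 (tested at 6.7 µM)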. 24,000 tested, 0.3% active;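 note: 0% = buffer alone and 100% = receptor blocker peptide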
Target sequence (P25090 whole entry, looked up): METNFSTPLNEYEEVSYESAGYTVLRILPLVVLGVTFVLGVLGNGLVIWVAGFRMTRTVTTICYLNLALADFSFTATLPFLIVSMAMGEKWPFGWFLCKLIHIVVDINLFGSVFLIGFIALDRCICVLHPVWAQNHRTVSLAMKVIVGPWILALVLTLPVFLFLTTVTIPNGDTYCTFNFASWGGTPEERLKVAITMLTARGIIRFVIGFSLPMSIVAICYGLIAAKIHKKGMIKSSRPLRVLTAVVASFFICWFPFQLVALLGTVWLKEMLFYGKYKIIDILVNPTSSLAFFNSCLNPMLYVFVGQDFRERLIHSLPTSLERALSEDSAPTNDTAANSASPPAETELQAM
VCAM-1 augmentation = boosters of cytokine-driven VCAM-1 levels – imaging, high-content imaging, pooled HUVEC, TNFa stimulus (AID 457); Pooled HUVEC, TNFa-induced VCAM-1 immunofluorescence imaging; hits of this screen are not shown here; calls only; 10,000 tested, 0.2% active;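 active = a top-ranked rise in VCAM-1 staining upheld on image or statistical review; inactive = the rest, including candidates rejected on review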;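 note: compounds tested at 5 µM in the well; cells exposed to compound for 24 hours before fixing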
VCAM-1 down = suppression of endothelial VCAM-1 upregulation – cell-based, plate reader, pooled HUVEC, TNFa stimulus (AID 454) | inhibition, % at 5 µM | HUVEC TNFa-induced VCAM-1 surface immunofluorescence, plate reader; numbers were filed only for top-ranked candidate wells | 10,000 tested, 0.2% active;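 active = compound among top-ranked inhibitors of TNF-induced VCAM-1 adhesion protein staining, with the hit upheld by image or statistical review; inactive = the rest, including hits rejected on review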;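 note: 0% = TNFa with vehicle and 100% = cells without TNFa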
* marks the source's active call; other numbers are inactive results; i = inactive; · = not tested or not shown.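 Rule for the calls, unless noted: active = mean above 30%; inconclusive = self-fluorescent; inactive = the rest.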 These rows are one share of the data. The share of hits here may be higher or lower than overall.

SMILES | VCAM-1 imaging | FPR binder | FPRL1 binder | VCAM-1 augmentation | VCAM-1 down
O=C(NCc1ccc(Cl)cc1)C1CCCN(S(=O)(=O)c2cnc[nH]2)C1 (stereo not drawn) | · | 1 | 1 | · | ·
COc1ccc(N2Cc3cccc(C(=O)O)c3C2=O)cc1 | · | -5 | -11 | · | ·
Cc1ccc(CCN2CC(C(=O)NCCCN3CCOCC3)CC2=O)cc1 (stereo not drawn) | · | 4 | 0 | · | ·
CCN(C(=O)CCc1nc(-c2ccc(OC)cc2)no1)c1cc(OC)ccc1OC | · | -3 | -5 | · | ·
COc1ccc2nc(NC(=O)C3CCN(S(=O)(=O)c4cnc[nH]4)CC3)sc2c1 | · | 0 | -3 | · | ·
CCn1ncc(C2=NOC(C(=O)Nc3c(C)n(C)n(-c4ccccc4)c3=O)C2)c1C (stereo not drawn) | · | 0 | 1 | · | ·
COc1cc(NC(=O)Nc2cccc(C(C)=O)c2)cc(OC)c1OC | i | 5 | -1 | i | i
O=C(O)CC(NS(=O)(=O)c1ccc(Br)cc1)c1ccco1 (stereo not drawn) | · | 4 | 2 | · | ·
CCOC(=O)CCSCC(=O)Nc1cc(C)on1 | · | -4 | -3 | · | ·
COC(=O)/C=c1/sc2nc3ccccc3n2c1=O | · | 2 | 4 | · | ·
COc1ccc(Nc2oc(COc3ccccc3F)nc2C#N)cc1 | · | -2 | 0 | · | ·
Cc1ccc(S(=O)(=O)N2CCCC2CO)cc1 (stereo not drawn) | · | -9 | -1 | · | ·
CC(=O)N1CCc2cc(S(=O)(=O)Nc3cccc(C(F)(F)F)c3)ccc21 | · | 1 | 5 | · | ·
O=C(Cn1ncc2c(=O)oc3ccccc3c21)N1CCC(N2CCCCC2)CC1 | · | 2 | 0 | · | ·
CN(C)S(=O)(=O)c1cccc(C(=O)Nc2cccnc2)c1 | i | 5 | 0 | i | i

Full records as entered above. Values in the order: VCAM-1 imaging, FPR binder, FPRL1 binder, VCAM-1 augmentation, VCAM-1 down
O=C(O)CC(NS(=O)(=O)c1ccc(Br)cc1)c1ccco1 (stereo not drawn) as listed: ·, 4, 2, ·, ·
COc1ccc2nc(NC(=O)C3CCN(S(=O)(=O)c4cnc[nH]4)CC3)sc2c1 as listed: ·, 0, -3, ·, ·
O=C(NCc1ccc(Cl)cc1)C1CCCN(S(=O)(=O)c2cnc[nH]2)C1 (stereo not drawn) as listed: ·, 1, 1, ·, ·
COc1ccc(N2Cc3cccc(C(=O)O)c3C2=O)cc1 as listed: ·, -5, -11, ·, ·
COc1ccc(Nc2oc(COc3ccccc3F)nc2C#N)cc1 as listed: ·, -2, 0, ·, ·

Going on with the list:
SMILES | VCAM-1 imaging | FPR binder | FPRL1 binder | VCAM-1 augmentation | VCAM-1 down
Cc1noc(C)c1S(=O)(=O)N(CC(=O)O)c1ccc2c(c1)OCO2 | · | 7 | 3 | · | ·
CCOC(=O)CNC(=O)CSc1ncnc2c1nnn2-c1ccc(F)cc1 | · | 11 | 13 | · | ·
COc1ccc(COCC(O)CN2CCOCC2)cc1OC (stereo not drawn) | · | -2 | 12 | · | ·
CCOc1ccc(NC(=O)CN2CCN(CC(=O)Nc3ccc4c(c3)OCO4)CC2)cc1 | · | -5 | 14 | · | ·
CC(C)NC(=O)c1ccc2c(=O)n(C3CCCC3)c(=S)[nH]c2c1 | · | -6 | -4 | · | ·
CC1(C)CC(=O)C2=C(C1)OC(c1cccs1)C(C#N)=C2N (stereo not drawn) | · | 0 | 4 | · | ·
Clc1ccc(Cl)c2sc(N3CCCC3)nc12 | · | 2 | -1 | · | ·
COC(=O)c1ccc2c(c1)NC(=O)C(N1CCCCC1)S2 (stereo not drawn) | · | -1 | -2 | · | ·
COc1cc(C)ccc1NC(=O)c1ccc(S(=O)(=O)N2CCOCC2)cc1 | · | -1 | 0 | · | ·
C=CCNC(=O)c1cc(=O)c2ccccc2o1 | · | 1 | 7 | · | ·
CCOC(=O)C1CCN(C(=O)c2ccc(OC)cc2OC)CC1 | i | 19 | 8 | i | i
O=C(CSc1c2c(nc3ccc(Cl)cc13)CCCC2)N1CCN(C(=O)c2ccco2)CC1 | · | 6 | 4 | · | ·
CSc1nc2sc3c(c2c(=O)n1C)CCC(C)C3 (stereo not drawn) | · | 6 | -12 | · | ·
COC(=O)c1[nH]c(C)c(/C(O)=C2\C(=O)C(=O)N(CCN3CCOCC3)C2c2cccs2)c1C (stereo not drawn) | i | 54* | 1 | i | i
CCOc1ccc(C2CC(c3cccc(OC)c3)n3nc(N)nc3N2)cc1 (stereo not drawn) | · | -1 | 1 | · | ·

3 structures from above, arranged by number of heavy atoms, low to high.
SMILES | VCAM-1 imaging | FPR binder | FPRL1 binder | VCAM-1 augmentation | VCAM-1 down
COC(=O)/C=c1/sc2nc3ccccc3n2c1=O | · | 2 | 4 | · | ·
COc1ccc(N2Cc3cccc(C(=O)O)c3C2=O)cc1 | · | -5 | -11 | · | ·
O=C(Cn1ncc2c(=O)oc3ccccc3c21)N1CCC(N2CCCCC2)CC1 | · | 2 | 0 | · | ·

Next part:
SMILES | VCAM-1 imaging | FPR binder | FPRL1 binder | VCAM-1 augmentation | VCAM-1 down
CCOC(=O)CSc1nc(N)c2c3c(sc2n1)CCCC3 | i | -6 | 2 | i | i
CC(C)NC(=O)CSCc1ccccc1Cl | i | -2 | -1 | i | i
CCN(CCCNC(=O)c1[nH]c(C)c(C(C)=O)c1C)c1ccccc1 | · | -6 | -6 | · | ·
CSC1=NCCN1C(=O)c1ccc(S(=O)(=O)N(C)C)cc1 | · | 2 | -1 | · | ·
CCOC(=O)c1nnn(CC(=O)Nc2cccc(OC)c2)c1C(=O)OCC | i | 0 | -2 | i | i
Cc1nc2sc(C(c3cccc(F)c3)N3CC(C)OC(C)C3)c(O)n2n1 (stereo not drawn) | · | -2 | 6 | · | ·
O=C(C1CC1)N1CCc2cc(S(=O)(=O)NCC3COc4ccccc4O3)ccc21 (stereo not drawn) | · | -1 | 2 | · | ·
O=C1CC(N2CCN(c3cccc(C(F)(F)F)c3)CC2)C(=O)N1c1ccccc1 (stereo not drawn) | i | 4 | -4 | i | i
CCN(CC)c1ccc(NC(=O)c2cnc3ccccn3c2=O)c(C)c1 | · | -2 | -8 | · | ·
COCCN(CCOC)S(=O)(=O)c1ccc(C(=O)Nc2nc(-c3ccncc3)cs2)cc1 | · | -6 | -6 | · | ·
COC(=O)C1CCN(C(=O)CSc2nnc(-c3ccncc3)o2)CC1 | i | -1 | 11 | i | i
CCOc1cccc(OCCOCCN2CCCC2)c1 | i | 1 | -2 | i | i
CCS(=O)(=O)n1nc(-c2ccccc2)cc1N | · | -10 | -8 | · | ·
Cc1ccc(C)c(CN2C(=O)C3(OCCCO3)c3ccccc32)c1 | · | -7 | 5 | · | ·
N[C@@H](C(=O)N[C@@H]1C(=O)N2C(C(=O)O)=C(Cl)CS[C@H]12)c1ccccc1 | i | 10 | 2 | i | i

Two entries from above, with two lines to a compound.
Fields: VCAM-1 imaging	FPR binder	FPRL1 binder	VCAM-1 augmentation	VCAM-1 down
> CCOc1cccc(OCCOCCN2CCCC2)c1
→ i	1	-2	i	i
> CCOC(=O)c1nnn(CC(=O)Nc2cccc(OC)c2)c1C(=O)OCC
→ i	0	-2	i	i

Going on with the list:
SMILES | VCAM-1 imaging | FPR binder | FPRL1 binder | VCAM-1 augmentation | VCAM-1 down
CC(C)(C)c1ccc(S(=O)(=O)N2CCN(CCC#N)CC2)cc1 | · | 6 | 0 | · | ·
CCc1nc2c(cnn2-c2ccc(Cl)cc2)c(=O)n1-c1ccc2c(c1)OCCO2 | i | -9 | -11 | i | i
Cc1c(/C(O)=C2\C(=O)C(=O)N(CCCN(C)C)C2c2ccccc2)cnn1-c1ccccc1 (stereo not drawn) | · | -6 | -2 | · | ·
C=CCSC1=C(C#N)C(c2ccccc2)CC(=O)N1 (stereo not drawn) | i | -2 | 1 | i | i
Cc1c(C(=O)O)cnc2cc(-c3ccc(Cl)cc3)nn12 | · | 0 | -2 | · | ·
CCCNS(=O)(=O)c1ccc2c(c1)CCCN2C(C)=O | · | -5 | -4 | · | ·
O=C(NC1CCCCC1)C1CCN(S(=O)(=O)N2CCCCCC2)CC1 | · | -5 | 2 | · | ·
O=c1cc(N2CCc3ccccc3C2)[nH]c(=O)n1C1CCCCC1 | · | 0 | 1 | · | ·
c1ccc(Nc2ccc3c4c(cccc24)CC3)cc1 | · | -17 | -4 | · | ·
Cc1cc(C(=O)Nc2cnn(Cc3ccc(Cl)cc3Cl)c2)no1 | · | 5 | 0 | · | ·
CCOC(=O)N1CCN(C(=O)c2ccc3c(SCC(=O)O)c4c(nc3c2)CCC4)CC1 | · | 4 | 1 | · | ·
CC(C)C(NC(=O)c1ccccc1NC(=O)c1ccco1)C(=O)O (stereo not drawn) | i | -2 | 2 | i | i
O=C(O)c1nc2ccccc2nc1C(=O)O | · | 1 | -2 | · | ·
Cc1cc(=O)n2nc(N3CCC(C(=O)NCCc4ccccc4)CC3)sc2n1 | · | -8 | -3 | · | ·
CC1(C)C(c2ccccc2)=NC(c2ccc(F)cc2)N1O (stereo not drawn) | · | -4 | 1 | · | ·
Clc1cccc(-c2nnc(-c3ccccc3)o2)c1 | · | 6 | -8 | · | ·
O=C(Nc1cccc(Br)c1)c1ccn[nH]1 | · | -5 | 6 | · | ·
O=C(CCn1c(=O)[nH]c2ccccc2c1=O)NCCCN1CCN(c2cccc(Cl)c2)CC1 | · | -2 | -7 | · | ·
Cc1ccc(NC(=O)C2CCN(S(=O)(=O)c3cnc[nH]3)CC2)nc1 | · | 2 | 4 | · | ·
O=S(=O)(c1ccc2c(c1)OCCO2)N(Cc1ccc(F)cc1)Cc1nnc(-c2cccs2)o1 | i | 9 | -8 | i | i
CC1Cn2c(nnc2-c2ccc(F)cc2)S1 (stereo not drawn) | i | -2 | -2 | i | i
CC1(C)CC(=O)C2=C(C1)OC(N)=C(C#N)C2c1ccccc1OC(=O)N1CCOCC1 (stereo not drawn) | · | 3 | -10 | · | ·
O=C(CSc1nnc(C2COc3ccccc3O2)o1)Nc1nccs1 (stereo not drawn) | · | 1 | 0 | · | ·
CCOc1nc(NCCc2ccc(OC)c(OC)c2)nc(NC(C)(C)CO)n1 | · | 2 | -5 | · | ·
COc1ccc(OC)c2[nH]c(=O)c(CCNC(=O)C(C)C)cc12 | i | -3 | 2 | i | i
COc1cccc(NC(=O)c2ocnc2C)c1 | · | 0 | 0 | · | ·
Cc1ccc2nsnc2c1S(=O)(=O)N1CCN(C(=O)C2CCCO2)CC1 (stereo not drawn) | · | -1 | 21 | · | ·
c1ccc(-c2ccc(C(c3ccccc3)n3ccnc3)cc2)cc1 (stereo not drawn) | i | 6 | 3 | i | i
Cc1c(C(=O)O)oc2ccc(S(=O)(=O)NCc3ccccc3)cc12 | i | -2 | 7 | i | i
O=C(NC1CCCCC1)c1cc(-c2ccco2)on1 | · | 4 | -4 | · | ·
CCCCNC(=O)CCC(=O)Nc1ccc2nc(N3CCOCC3)cc(C)c2c1 | · | 8 | 0 | · | ·
COc1ccc(C(=O)NCCSc2ccccn2)cc1 | i | 0 | 0 | i | i
O=C1Cc2ccccc2C(=O)N1CCc1ccccc1 | · | 16 | 4 | · | ·
Cc1ccc(C2C(C#N)=C(N)Oc3nc(-c4ccccc4)[nH]c32)o1 (stereo not drawn) | · | 5 | 4 | · | ·
Cc1ccc(S(=O)(=O)c2c(C)nn(C(C)(C)C)c2OC(=O)C(C)(C)C)cc1 | · | 1 | 6 | · | ·
CCOC(=O)N1CCN(C(=O)CS(=O)(=O)c2cn(Cc3ccccc3C)c3ccccc23)CC1 | · | 8 | -1 | · | ·
Cc1cccc(C)c1NC(=O)C1(NC(=O)C2CCCN2C(=O)OC(C)(C)C)CCCCC1 (stereo not drawn) | · | 2 | 4 | · | ·
CC1(C)CC2(CC(C)(C)N1)OC(=O)N1CCc3ccccc3C12C (stereo not drawn) | · | 2 | 3 | · | ·
CC(C)(CC(=O)O)Cc1nc(-c2ccc(Cl)cc2)no1 | · | -8 | -1 | · | ·
O=C(CCn1cccc1)NC1CCCc2ccccc21 (stereo not drawn) | · | -2 | -1 | · | ·
O=C(NCc1ccccc1Cl)C1CCN(C(=O)c2sccc2-n2cccc2)CC1 | · | 10 | 1 | · | ·
Cn1cccc1Cc1nnc(SCC(=O)Nc2cccc(F)c2)n1CCc1ccccc1 | · | 0 | 0 | · | ·
CCOC(=O)C1CSC(CC(=O)Nc2ccc(Cl)cc2)C(=O)N1 (stereo not drawn) | i | -10 | 10 | i | i
COc1ccc(N2C(=O)C3CCCN3C2c2ccc(F)cc2)cc1Cl (stereo not drawn) | i | -4 | -6 | i | i
COc1ccc(NC(=O)C2C(=O)N(C)C3(C)CC2c2ccccc2O3)cc1 (stereo not drawn) | · | 6 | 11 | · | ·
CCCCCCC(C)n1[nH]c(=O)c2c(C)cc(=O)[nH]c21 (stereo not drawn) | i | -3 | 1 | i | i

Compound activity as filed in PubChem.
